Mtb H37Rv: M. tuberculosis H37Rv growth inhibitors, H37Rv strain (AID 1626) | M. tuberculosis H37Rv growth inhibition; higher % means a stronger effect | one-dose inhibition, % at 10 µM; IC50 in µM for titrated hits | 220,000 tested, 0.95% active;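 active = confirmed in a dose series; inconclusive = inhibition above 80% but not taken into the dose series; inactive = below 80% or under 30% at every dose of the series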;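 note: bacteria incubated seven days before Alamar blue readout; 0% = bacteria only wells and 100% = bacteria with antibiotic wells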
Mtb betalactam: beta-lactam sensitization of Mtb H37Rv | AID 434955 | M. tuberculosis H37Rv growth with meropenem, percent inhibition; hits of this screen are not shown here | 330,000 tested, 0.27% active | inhibition, % at 25 µM;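 active = about 74% or more and at least 40 points above the plate without the antibiotic, then above 30% in a dose series; inconclusive = first-round hits that could not be retested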;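 note: growth measured after seven days incubation then overnight dye step; 0% = bacteria only wells and 100% = bacteria with antibiotic; twin plates without the antibiotic show which effects depend on it; some results filed as inactive read as strong as hits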
YopH PTP inh: blocks Yersinia enterocolitica YopH tyrosine phosphatase | fluorescence Ex485/Em525 | inhibition, %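 (about 10 µM by stock and volumes)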 | 140,000 tested, 0.16% active;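 active = inhibition of 50% or more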;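 note: controls were vehicle for no effect and minimum signal wells for full effect; inactives centre near -20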
Arbovirus inh: arbovirus infection inhibition. arbovirus infection cell-based antiviral screen. inhibition, % at 10 µM. 200,000 tested, 0.37% active. AID 1251;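 active = inhibition from about 30%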;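 note: bluetongue infection of BSR cells; cell survival read as ATP light after 72 h; 0% = infected wells without compound and 100% = uninfected wells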
RecA splice inh: inhibitors of M. tuberculosis RecA intein splicing; 290,000 tested, 0.75% active; AID 2221; cell-free RecA intein splicing, fluorescence; P9WHJ3; inhibition, %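 (about 9 µM by stock and volumes)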; in the data active = inhibition above about 30%; inconclusive = no clear call, values can overlap the other calls;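 note: 0% = vehicle wells and 100% = reference inhibitor control wells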
Target sequence (P9WHJ3 whole entry, looked up, canonical isoform): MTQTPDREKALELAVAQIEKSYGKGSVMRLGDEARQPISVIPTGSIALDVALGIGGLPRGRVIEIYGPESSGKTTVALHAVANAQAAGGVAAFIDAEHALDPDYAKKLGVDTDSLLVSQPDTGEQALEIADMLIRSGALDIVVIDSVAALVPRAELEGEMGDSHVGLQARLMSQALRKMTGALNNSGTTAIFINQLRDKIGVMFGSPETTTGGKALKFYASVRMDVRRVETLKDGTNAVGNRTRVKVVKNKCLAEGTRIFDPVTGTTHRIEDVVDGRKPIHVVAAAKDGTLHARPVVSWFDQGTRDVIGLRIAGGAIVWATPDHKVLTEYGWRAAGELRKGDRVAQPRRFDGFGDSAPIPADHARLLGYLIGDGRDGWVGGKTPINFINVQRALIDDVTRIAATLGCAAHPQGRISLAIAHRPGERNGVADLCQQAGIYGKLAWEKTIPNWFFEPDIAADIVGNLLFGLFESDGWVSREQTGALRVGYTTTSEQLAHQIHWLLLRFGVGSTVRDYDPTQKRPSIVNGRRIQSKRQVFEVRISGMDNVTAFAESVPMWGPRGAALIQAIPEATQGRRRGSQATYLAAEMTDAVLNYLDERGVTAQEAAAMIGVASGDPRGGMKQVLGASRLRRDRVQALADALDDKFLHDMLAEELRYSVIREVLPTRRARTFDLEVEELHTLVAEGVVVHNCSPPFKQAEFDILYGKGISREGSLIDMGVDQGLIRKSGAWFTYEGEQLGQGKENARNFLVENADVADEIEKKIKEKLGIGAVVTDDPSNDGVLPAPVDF
Arbovirus inh repeat: recorded beside Arbovirus inh, whose call it bears; inhibition, %; measured here: 10K subset replicate screen; many hits read low in the repeat;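 first of two repeat runs on a subset; 0% = infected and 100% = uninfected wells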
* hit, by the source's call; u = inconclusive; x = not tested or not shown.

SMILES | Mtb H37Rv | Mtb betalactam | YopH PTP inh | Arbovirus inh | RecA splice inh | others
COc1cc(NC(=O)c2ccccc2)c(OC)cc1NC(=O)Cc1ccc(Br)cc1 | x | 0 | x | x | -4.2
CCn1c(=O)c2sccc2n(Cc2ccc(C)cc2)c1=O | x | -3 | x | x | 1.2
CCN(CC(=O)NCCc1ccc(S(N)(=O)=O)cc1)Cc1nc2ccccc2c(=O)[nH]1 | -4% | u | -32 | 4 | -1.5
CCOC(=O)c1cc(NC(=O)Nc2cc(C)ccn2)c(C)nc1C | 5% | 2 | x | 12 | 0.2
COC(CNC(=O)C1CCCN1C(=O)OCc1ccccc1)OC (centres undefined) | -8% | -4 | x | 8 | 0.5
Cc1cc(N)n(-c2ccccc2)n1 | x | -7 | -57 | -8 | -0.7
COc1ccc([C@@H]2[C@@H]3C(=O)N(C(C)(C)C)C(=O)[C@@H]3[C@]3(C)C(=O)N(c4cccc(C)c4)C(=O)N23)cc1 | x | -5 | x | x | -1.1
Nc1nonc1-c1noc(CCCOc2ccc(Cl)cc2Cl)n1 | 11% | 9 | -26 | -2 | 1.8
CC(C)(C)C(=O)NNC(=O)c1cnccn1 | -1% | -7 | x | x | 1.0
O=C(CN1C(=O)c2ccccc2C1=O)Nc1ccccc1N1CCOCC1 | -7% | -1 | x | x | -0.2
CCN(C(=O)c1cc2c(=O)n3ccccc3nc2n1C)C1CCCCC1 | x | -2 | x | x | -206
O=C(CNS(=O)(=O)c1cccs1)NCc1ccc(F)cc1 | -1% | -6 | x | 1 | x
COc1ccccc1-c1nc(SCc2ccccn2)n[nH]1 | -9% | -3 | x | -2 | -4.4
CC(C)CC(C(=O)NCc1ccccn1)N1C(=O)c2ccccc2C1=O (centres undefined) | 7% | 0 | -31 | 10 | 2.1
COc1cc(OC)c(C2CC(=O)N3CN(c4ccccc4)CSC3=C2C#N)cc1OC (centres undefined) | -1% | 1 | -7 | 0 | 4.6
CS(=O)(=O)NCCOc1ccc(S(=O)(=O)N2CCCc3ccccc32)cc1 | -18% | -5 | -9 | 10 | 3.1
COc1ccc(/C=N/N=C2/NC(=O)C(CC(=O)O)S2)cc1OCc1ccc(Cl)cc1 (centres undefined) | -4% | 3 | -30 | -10 | -9.5
Cc1ccc(Cl)cc1NC(=O)CC1NCCNC1=O (centres undefined) | -10% | -22 | 8 | 3 | 2.0
Cc1ccc(-c2[nH]nc3c2C(c2ccsc2)C(C#N)=C(N)O3)cc1 (centres undefined) | -8% | -20 | -2 | 0 | 65*
CN1c2cccc3cccc(c23)N(C)C1(C)C | x | -2 | -24 | 6 | -5.4
CCO[C@@H]1OC(C(N)=O)=C[C@H](c2cn(C(C)=O)c3ccccc23)[C@H]1CCCO | -12% | -5 | x | 1 | 1.4
COc1ccccc1N1CCN(S(=O)(=O)c2cccs2)CC1 | -3% | 31 | -19 | 2 | 0.7
COc1cccc(C(C(=O)NC2CCCC2)N(Cc2ccco2)C(=O)c2ccco2)c1OC (centres undefined) | -11% | 2 | 35 | -6 | 0.0
CC(C(=O)Nc1ccc(F)c(F)c1F)N(C)Cc1cccs1 (centres undefined) | x | 4 | x | x | 3.2
Cc1ccc(-n2c(C)nnc2SCC(=O)Nc2ccccc2)cc1 | x | -16 | -12 | 3 | -0.2
Cc1cc(OC(F)F)ccc1NC(=S)NCCc1ccccc1 | x | -5 | x | x | 5.1
COc1cc(/C=C2/C(=N)N3N=C(CC(=O)N4CCOCC4)SC3=NC2=O)ccc1OCc1ccccc1 | x | -6 | x | x | 5.5
CCCN1C(=O)/C(=C/c2ccc(C)o2)SC1=Nc1ccc(OCC)cc1 | 1% | 12 | 5 | 9 | -2.7
CCCNC(=O)C(CC)NS(=O)(=O)c1ccc(OC)cc1 (centres undefined) | x | -13 | -50 | -2 | -1.0
O=C(Cc1ccccc1)NC(=S)Nc1ccc(N2CCCCC2)cc1 | 50% | 87 | -22 | 4 | 0.1
CC(=O)Nc1ccc(S(=O)(=O)N2CCSC2c2ccc(Cl)cc2)cc1 (centres undefined) | 4% | -14 | -33 | 8 | -2.4
Cc1cc(=O)[nH]c(S/C=C/c2ccccc2)n1 | -1% | u | -95 | -5 | -0.1
O=C1NN(c2ccccc2)C(=O)/C1=C\c1cccn1-c1ccc(Cl)c([N+](=O)[O-])c1 | 6% | -10 | -5 | 6 | -1.7
Cc1cc(=O)nc2c3ccccc3n(CC(=O)NC3CCCCC3)n12 | x | 3 | x | x | -0.8
CCN(CC)CCn1c2c(c(SCC(=O)Nc3cc(C)cc(C)c3)nc1=O)CCC2 | x | 1 | x | x | -0.4
O=C(CCCC(=O)OCC(=O)c1cccs1)Nc1ccc(F)cc1 | -10% | 2 | x | 0 | -1.3
CCOC(=O)c1ccc(NC(=O)c2ccc(NC(=O)c3ccccc3)cc2)cc1 | 3% | 10 | -6 | 1 | -0.2
O=C(O)CCC(=O)N1CCC(n2nnc3cc(C(F)(F)F)ccc32)CC1 | -2% | -3 | x | x | -0.4
Cc1cc(NC(=O)c2cccs2)ncc1NC(=O)C(C)(C)C | x | -1 | x | x | -3.4
CC(Cc1cnccn1)NC(=O)c1cc(COc2ccc(F)cc2F)on1 (centres undefined) | x | -2 | x | x | 0.3
CCc1c(C)nc(SCC(=O)N2C(C)CCCC2C)[nH]c1=O (centres undefined) | -1% | 2 | x | -17 | -3.5
CCOc1ccc(N(CC(=O)Nc2ccccc2Cl)S(C)(=O)=O)cc1 | x | 2 | x | x | -2.2
CC(C)CCN1CC(C(=O)NCc2ccc(F)cc2)CC1=O (centres undefined) | -3% | 0 | -32 | 0 | 0.1
O=C(C1=C[C@@H](C2CC2)C[C@@H](OCc2ccc(CO)cc2)O1)N1CCN(Cc2ccccc2)CC1 | 0% | 0 | x | 2 | 1.2
O=C(CCn1c(=S)[nH]c2cc3c(cc2c1=O)OCO3)NCc1cccc(Cl)c1 | x | 3 | x | x | -2.3
CCOc1ccccc1C1C(C(=O)OC)=C(N)OC2=C1C(=O)CCC2 (centres undefined) | 7% | 7 | -17 | 2 | -0.4
Cc1ccc(S(=O)(=O)N[C@@H](Cc2ccccc2)C(=O)N2CCC[C@@H]2C(=O)O)cc1 | x | 7 | x | x | -1.1
Cc1ccc(CN(c2ccc(C(=O)NCc3ccccn3)cc2)S(C)(=O)=O)cc1 | 2% | -3 | -19 | 10 | x
CCN(CC)CCn1c(=N)n(CC(O)c2ccco2)c2ccccc21 (centres undefined) | -2% | -1 | -31 | -4 | 2.4
COc1ccccc1N1CCN(S(=O)(=O)c2cc3[nH]c(=O)c(=O)[nH]c3cc2C)CC1 | x | -2 | x | x | -3.9
CC(=O)COc1ccc2c(-c3ccccc3)cc(=O)oc2c1 | 4% | -11 | -25 | -9 | 0.6
O=C(CP(=O)(c1ccccc1)c1ccccc1)N/N=C/c1cc(Br)cc(Br)c1O | 0% | 3 | -23 | -11 | -10
COc1ccc(C2CC(c3ccc(F)cc3)=NN2c2ccccc2)cc1OC (centres undefined) | x | 78 | x | x | 13
CC(C)C12CN3CC(C(C)C)(CN(C1)C3(C)C)C2=O | 7% | -1 | x | 1 | 2.0
Cc1ccc(NC(=O)C(C)N2C(=O)c3ccccc3C2=O)cc1C (centres undefined) | x | -2 | x | x | -5.5
O=C(C[n+]1cccc(CNC(=O)c2ccc(OC(F)F)cc2)c1)Nc1ccccc1Cl | 4% | -1 | -36 | -2 | 3.4
CCC(CC)NC(=O)COC(=O)c1ccc(OCc2ccc(C(C)=O)cc2OC)c(OC)c1 | -5% | -1 | -16 | 6 | 0.1
Cc1cccc(C)c1NC(=O)NC1CC2CCC(C1)N2Cc1cccs1 (centres undefined) | 2% | 18 | -46 | -10 | 4.6
CCOc1ccc(CC(=O)N2CCN=C2SC)cc1 | -3% | -7 | x | 1 | -1.4
CC1CCN(Cc2nnnn2CCCC(=O)N(C)C2CCOC2)CC1 (centres undefined) | x | 1 | x | x | -2.4

Two records picked at random from the list so far:
SMILES | Mtb H37Rv | Mtb betalactam | YopH PTP inh | Arbovirus inh | RecA splice inh | others
CC1CCN(Cc2nnnn2CCCC(=O)N(C)C2CCOC2)CC1 (centres undefined) | x | 1 | x | x | -2.4
CC(=O)Nc1ccc(S(=O)(=O)N2CCSC2c2ccc(Cl)cc2)cc1 (centres undefined) | 4% | -14 | -33 | 8 | -2.4

Sorted by length of the SMILES (highest first): part of the list above
SMILES | Mtb H37Rv | Mtb betalactam | YopH PTP inh | Arbovirus inh | RecA splice inh | others
Cc1ccc(S(=O)(=O)N[C@@H](Cc2ccccc2)C(=O)N2CCC[C@@H]2C(=O)O)cc1 | x | 7 | x | x | -1.1
COc1ccc(C2CC(c3ccc(F)cc3)=NN2c2ccccc2)cc1OC (centres undefined) | x | 78 | x | x | 13
Cc1cccc(C)c1NC(=O)NC1CC2CCC(C1)N2Cc1cccs1 (centres undefined) | 2% | 18 | -46 | -10 | 4.6
CCN(CC)CCn1c(=N)n(CC(O)c2ccco2)c2ccccc21 (centres undefined) | -2% | -1 | -31 | -4 | 2.4
CCc1c(C)nc(SCC(=O)N2C(C)CCCC2C)[nH]c1=O (centres undefined) | -1% | 2 | x | -17 | -3.5
CC(C)CCN1CC(C(=O)NCc2ccc(F)cc2)CC1=O (centres undefined) | -3% | 0 | -32 | 0 | 0.1
CCOc1ccc(CC(=O)N2CCN=C2SC)cc1 | -3% | -7 | x | 1 | -1.4

The list continues.
SMILES | Mtb H37Rv | Mtb betalactam | YopH PTP inh | Arbovirus inh | RecA splice inh | others
C/C(=N\NC(=O)CCCCCNC(=O)c1ccccc1)c1ccccc1O | 0% | 8 | -30 | -26 | 3.3
Nc1ccc(C(=O)O)cc1[N+](=O)[O-] | 0% | -1 | x | 7 | -5.0
Oc1cc2ccccc2cc1-c1nnc2n1-c1ccccc1SC2 | -1% | 54 | 1 | 5 | -0.6
CC(=O)c1cc(CC=C(C)C)c(O)cc1O | -4% | 12 | 1 | 17 | x
Cc1cc(-c2cccc([N+](=O)[O-])c2)nc2ccc3ccccc3c12 | -9% | 18 | -20 | -12 | -1.7
CCCCCCCCN1[C@@H](CC(=O)OCC)c2cc(F)ccc2S1(=O)=O | 5% | -2 | x | x | 12
CC(=O)NCCOC(=O)c1nn(Cc2ccccc2)c(=O)c2ccccc12 | x | 2 | x | x | -1.0
Cc1cc(C)cc(N=Cc2c(O)c3ccccc3oc2=O)c1 | 7% | 23 | x | 4 | 2.4
CC(=O)Nc1ccc(NC(=O)CSc2ccc(-c3sc(C)nc3C)nn2)cc1 | x | -4 | x | x | 0.2
COc1cccc2cc(C(=O)Nc3cccnc3N3CCOCC3)c(=O)oc12 | -1% | -1 | 4 | 3 | -1.3 | Arbovirus inh repeat=-5
COc1ccc(C(=O)N2CC3(CC(c4cccc(NC(=O)COc5ccc(Cl)cc5)c4)=NO3)C[C@@H]2C(N)=O)cc1 (some centres undefined) | 3% | 57 | x | x | 4.2
Cc1ccc(NC(=O)C2CCCO2)cc1[N+](=O)[O-] (centres undefined) | -6% | 0 | -32 | -7 | -1.6
Cc1ccc(C(=O)N2CCCC2)cc1S(=O)(=O)N1CCOCC1 | x | -11 | x | x | -0.4
Cc1ccc2oc(C(=O)N(C)CCC(O)c3ccccc3)c(C)c2c1 (centres undefined) | x | 2 | x | x | 0.9
COc1ccc(C)cc1Nc1n[n+](C)c(-c2c3ccccc3cc3ccccc23)s1 | x | -11 | x | x | -7.5
NC(=O)CNC(=O)c1ccc(Cl)cc1 | -12% | 0 | x | x | 5.7
O=C(O)c1cc2cc(Cl)cc(Cl)c2oc1=O | 3% | 7 | -24 | 15 | -0.9
COc1ccc(NC(=O)CN(C)CC(=O)Nc2ccccc2SC)cc1 | -4% | 6 | -10 | 0 | -1.2
CCOc1cc(N2CCOCC2)c(OCC)cc1NC(=O)COC(=O)CCOc1ccc(C(C)(C)C)cc1 | x | -1 | x | x | -0.1

Structural class, the compounds so far with a nitro group on carbon
SMILES | Mtb H37Rv | Mtb betalactam | YopH PTP inh | Arbovirus inh | RecA splice inh | others
O=C1NN(c2ccccc2)C(=O)/C1=C\c1cccn1-c1ccc(Cl)c([N+](=O)[O-])c1 | 6% | -10 | -5 | 6 | -1.7
Nc1ccc(C(=O)O)cc1[N+](=O)[O-] | 0% | -1 | x | 7 | -5.0
Cc1cc(-c2cccc([N+](=O)[O-])c2)nc2ccc3ccccc3c12 | -9% | 18 | -20 | -12 | -1.7
Cc1ccc(NC(=O)C2CCCO2)cc1[N+](=O)[O-] (centres undefined) | -6% | 0 | -32 | -7 | -1.6

A portion of the library; count on the stated rates, not on these rows.
